StopGo reporter – High Throughput Screening for Foot and Mouth Disease Virus Antivirals. human cells with a luciferase reporter of 2A StopGo recoding; control for the full effect not named in the record. Potency, µM (titrated, usually from 57.9 µM), for inactives: at the highest dose signal change, negative = less light. actives 1.2% (n = 410,000); active = well fitted falling curve with a large enough effect; inconclusive = small, poorly fitted or top-dose-only effect; inactive = no such curve, though single readings can be large or run the other way; tested in HEK293T cells; note: % is set by controls: 0 for no effect and ±100 for the full control effect; nearly all actives have a fitted effect of over 45% in size; luciferase light after 4 h
RE007 growth inh – qHTS Assay for Inhibitors of the HIV-1 protein Vpr; actives 0.21% (n = 360,000); AID 651644, 2012; S. pombe RE007 Vpr strain, BacTiter-Glo ATP luminescence, 24 h; control for the full effect not named in the record; Potency, µM (highest dose often 92.2 µM), for inactives: at the highest dose activity change, negative = less growth; active = well fitted falling curve with a large enough effect; inconclusive = small, poorly fitted or top-dose-only effect; inactive = no such curve, though single readings can be large or run the other way;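 note: % is set by controls: 0 for no effect and ±100 for the full control effect; nearly all actives have a fitted effect of over 50% in size; the assay follows cell death caused by Vpr and the record does not say whether a fall means rescue or toxicity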
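Fission yeast RE007 carrying one integrated HIV-1 vpr copy, seeded at OD 0.01 in PMG+AL medium with 23 nL pinned compound. Grown 24 h at 30 degrees; viability read by BacTiter-Glo luminescence after 5 min.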
NS1 inh – qHTS Assay for Inhibitors of Influenza NS1 Protein Function; S. cerevisiae slowed by influenza A NS1, growth recovery by OD600; Potency, µM (highest dose often 46.1 µM), for inactives: at the highest dose activity, positive = more growth; actives 0.4% (n = 270,000); AID 2326, 2010; note: actives are rising curves; nearly all actives have a fitted effect of over 50% in size
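A cell-based growth assay was used: compounds that relieve NS1-induced slow growth of budding yeast raise OD600. Assay medium was yeast nitrogen base with ammonium sulphate and -URA supplement, pH 6.0, with 2% galactose.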
Cruzain Triton – qHTS Assay for Promiscuous and Specific Inhibitors of Cruzain (with detergent); actives 0.43% (n = 200,000); Potency, µM, without a hit: max response, negative = inhibition, most hits filed as inhibitors; purified cruzain, Z-FR-AMC fluorescence, 0.01% Triton; Cruzipain (Trypanosoma cruzi), P25779; active = well fitted curve in the direction sought with a large enough effect; inconclusive = small, poorly fitted or top-dose-only effect, or another doubt; inactive = no such curve, though single readings can be large; an effect the other way counts as inactive or inconclusive;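 note: plate controls were neutral wells for no effect and buffer without enzyme for full effect; nearly all actives have a fitted effect of over 40% in size; top concentration of the series not given in the record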
Target sequence (P25779 123-467 limits assumed): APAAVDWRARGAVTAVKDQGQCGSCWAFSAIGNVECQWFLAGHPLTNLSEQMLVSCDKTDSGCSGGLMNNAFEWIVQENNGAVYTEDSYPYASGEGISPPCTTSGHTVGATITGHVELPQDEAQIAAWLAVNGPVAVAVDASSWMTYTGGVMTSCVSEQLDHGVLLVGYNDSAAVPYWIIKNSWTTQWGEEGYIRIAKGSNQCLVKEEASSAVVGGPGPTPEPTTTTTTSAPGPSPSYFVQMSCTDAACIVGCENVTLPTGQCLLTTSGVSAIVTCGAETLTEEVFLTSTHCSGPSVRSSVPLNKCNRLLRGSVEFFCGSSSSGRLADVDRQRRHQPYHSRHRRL
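Read-out: AMC fluorescence (360 nm excitation, 450 nm emission), four reads over 2 min, first-to-third difference used. Conditions: cruzain 1.5 nM, Z-FR-AMC 2 uM, pH 5.5 acetate, 5 mM DTT, 0.01% Triton X-100.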
Lassa entry inh – qHTS for Inhibitors of binding or entry into cells for Lassa Virus; Lassa virus pseudotype entry inhibition, cell reporter; control for the full effect not named in the record; Potency, µM (top dose mostly 37.9 µM), for inactives: at the highest dose activity change, negative = inhibition, actives largely listed as inhibitors; actives 1.2% (n = 300,000); AID 540256, 2011; active means well fitted inhibition curve with a large enough effect; inconclusive means small, poorly fitted or top-dose-only effect, or effect the other way; inactive means flat fitted curve, though single readings scatter; tested in HEK293 cells; note: % is set by controls: 0 for no effect and ±100 for the full control effect; nearly all actives have a fitted effect of over 50% in size; luciferase read-out
SARS PLP yeast – qHTS of Yeast-based Assay for SARS-CoV PLP | S. cerevisiae expressing SARS-CoV PLpro, growth rescue; control for the full effect not named in the record | actives 0.19% (n = 330,000) | Potency, µM (titrated, usually from 32.9 µM), for inactives: top-dose activity, positive = growth rescue; note: 0% is about no effect; nearly all actives have a fitted effect of over 55% in size; growth read by luminescence after 48 h
Cruzain noTriton – qHTS Assay for Promiscuous and Specific Inhibitors of Cruzain (without detergent). Cruzipain (Trypanosoma cruzi), P25779. purified cruzain, Z-FR-AMC fluorescence, no detergent. Potency, µM, without a hit: max response, negative = inhibition, actives largely listed as inhibitors. actives 2.3% (n = 200,000); active = well fitted curve in the direction sought with a large enough effect; inconclusive = small, poorly fitted or top-dose-only effect, or another doubt; inactive = no such curve, though single readings can be large; an effect the other way counts as inactive or inconclusive;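 note: plate controls were enzyme without inhibitor for no effect and buffer without enzyme for full effect; nearly all actives have a fitted effect of over 40% in size; top concentration of the series not given in the record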
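Purified cruzain at 1.5 nM, pre-incubated 15 min with compound at room temperature in 100 mM sodium acetate pH 5.5, 5 mM DTT, 0.00005% Triton X-100. Reaction started with 2 uM Z-FR-AMC; AMC fluorescence increase over 60 s gives rate.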
Marburg entry inh – qHTS for inhibitors of binding or entry into cells for Marburg Virus. Marburg virus pseudotyped entry inhibition, cell reporter; control for the full effect not named in the record; about a third of the inactives were read at about 46 µM. Potency, µM (highest dose often 37.8 µM), for the others: top-dose activity change, negative = inhibition, hits mostly inhibitors. actives 1.8% (n = 300,000); active = well fitted inhibition curve with a large enough effect; inconclusive = small, poorly fitted or top-dose-only effect, or effect the other way; inactive = flat fitted curve, though single readings scatter; tested in HEK293 cells; about a fifth of its hits are not listed in these tables; note: % is set by controls: 0 for no effect and ±100 for the full control effect; luciferase read-out
* hit, by the source's call; ? = inconclusive; nt = not tested or not shown; & = joins results of further samples; [ ] = another dose, or the depositor's remark. Unless noted, calls come from the whole dose curve; as a rule, active means well fitted rising curve with a large enough effect; inconclusive means small, poorly fitted or top-dose-only effect; inactive means no such curve, though single readings can be large or run the other way. Potency is the fitted concentration of half-maximal effect. Hits appear at their usual frequency; 4.7% or so of the library scored in one or more.

SMILES	StopGo reporter	RE007 growth inh	NS1 inh	Cruzain Triton	Lassa entry inh	SARS PLP yeast	Cruzain noTriton	Marburg entry inh
CC1CCCC(C)N1C(=O)CSc1nc2c(c(=O)n(C)c(=O)n2C)n1C (stereo unspecified)	28%	-8%	-1%	nt	-1%	19%	nt	2%[46.1 µM]
COc1cccc2c1OC1(C)CC2N(C(=O)c2ccco2)C(=S)N1c1ccc(F)cc1 (stereo unspecified)	-14%	13%	15%	-1.7%	?	8%	5%	-45%
COc1ccc(C2CC(c3ccccc3)Nc3nc(NC(=O)c4ccco4)nn32)cc1 (stereo unspecified)	-23%	14%	-1%	4.1%	8%	-2%	-2%	5%
COc1ccc(S(=O)(=O)N2CCC(C(=O)NCCc3ccccc3)CC2)cc1	16%	-10%	0%	nt	nt	5%	nt	nt
CCOC(=O)c1c(C)[nH]c(C(=O)COC(=O)COc2ccc(OC)cc2)c1C	-6%	2%	9%	-1.2%	0%	-5%	-6%	-17%
O=C(Cn1c(=O)n(CCCC(=O)NC2CCCC2)c(=O)c2ccccc21)NCCC1=CCCCC1	-22%	10%	-6%	2.2%	24%	-3%	-6%	-1%&-1%[46.1 µM]
O=S(=O)(Nc1ccc(C(F)(F)F)cc1)c1ccc2c(c1)OCCO2	28%	nt	nt	-13%	-15%[46.1 µM]	nt	7%	0%[46.1 µM]
Cc1ccc(NC(=O)C(C)Sc2nnc(C)n2CC2CCCO2)cc1 (stereo unspecified)	-8%	6%	15%	nt	2%[46.1 µM]	26%	nt	10%[46.1 µM]
Cc1ccc(OCCCCCCN2CCNCC2)c(Br)c1	-19%	-10%	nt	nt	?	nt	nt	13µM*
C[N+]1(CCCOC(=O)C2(c3ccccc3)CCCC2)CCOCC1	-8%	-5%	-3%	-1.6%	0%	-7%	-8%	4%
Cc1ccc2[nH]c(C(=O)N3CCN(C=O)CC3)cc2c1	7%	1%	-8%	nt	nt	23%	nt	nt
CCO[C@H]1OC(C(=O)N2CCCCCCC2)=C[C@@H](c2ccccc2)[C@@H]1CCCO	19%	11%	-1%	nt	nt	0%	nt	nt
COc1ccc(/C=C2\SC(=Nc3ccccc3OC)NC2=O)cc1	19%	-22%	-62%	nt	nt	-16%	nt	nt
CC(=O)Nc1cccc(-c2csc(Nc3cc(C)ccn3)n2)c1	nt	-5%	-15%	-9.4%	6%	-23%	3%	?
COc1cccc(-n2nnc3c(=O)n(Cc4ccc(Br)cc4)cnc32)c1	48%[activator]	1%	-7%	-0.6%	?	-4%	?	-27%
Cc1ccc(NC2CCCN(C(=O)c3cn4cccc(C)c4n3)C2)cc1C (stereo unspecified)	-11%	7%	6%	nt	2%	-5%	nt	3%
CCCSc1nnc(NC(=O)c2nc(SC)ncc2Cl)s1	-22%	4%	-179%	-3.6%	29%[14.3 µM]	-13%	0%	-16%
O=C(c1ccc2c(c1)OCO2)C1CCCN(C(=O)NCc2ccccc2)C1 (stereo unspecified)	-17%	6%	-8%	nt	?	-1%	nt	0%[46.1 µM]
COc1ccc(NC(=O)C2CCN(c3ncnc4c3nc3n4CCCCC3)CC2)c(OC)c1	-19%	0%	-1%	nt	nt	13%	nt	nt
COCCSc1ccccc1C(=O)Nc1ccc(Br)cc1	6%	?	-10%	nt	nt	-1%	nt	nt
COc1ccc(CC(=O)NCc2n[nH]c(=S)n2-c2cccc(C)c2)cc1	-17%	-5%	nt	nt	17%[46.1 µM]	1%	nt	?
Cc1ccc(SCC(=O)NCc2cccnc2)cc1	0%	-10%	-54%	2.0%	15%	-2%	-8%	6%
COc1ccc(S(=O)(=O)NC2CCSc3ccccc32)cc1NC(C)=O (stereo unspecified)	14%	14%	2%	nt	14%	2%	nt	-15%[46.1 µM]
CN(CCCC1CCCC1)C(=O)CCc1nnc(-c2ccccc2)o1	20%	-4%	-9%	nt	29%[46.1 µM]	0%	nt	?
CSc1nnc(C)c(=O)[nH]1	0%	-4%	11%	5.2%	21%	13%	4%	7%&7%
C=CCN(C(=O)CNS(=O)(=O)c1ccccc1)C(C(=O)NCCOC)c1cccnc1 (stereo unspecified)	6%	9%	7%	nt	nt	-6%	nt	-1%[46.1 µM]
COc1ccc(OCC(=O)NC(=S)NNC(=O)COc2ccc(Br)cc2Cl)cc1	11%	-23%	4%	nt	-15%	1%	nt	7%[14.2 µM]
CN1/C(=C\C(=O)COC(=O)c2ccc(O)c(O)c2)C(C)(C)c2ccccc21	0%	11%	nt	nt	?	3%	nt	?
Cc1cccc(OCC(=O)O/N=C(\N)c2ccc(Cl)cc2)c1	15%	-24%	-49%	-0.7%	-5%	-1%	-10%	-8%
CCOC(=O)C(O)(c1ccc(N(CC)C(=O)OC)cc1)C(F)(F)F (stereo unspecified)	-4%	2%	2%	-1.5%	?	0%	10%	-8%
Cc1ccc(-n2nc(C)c3c(C)c(CCC(=O)NCCCOC(C)C)c(C)nc32)cc1	?	9%	2%	nt	nt	0%	nt	nt
CC1CCN(S(=O)(=O)c2ccc(C(=O)Nc3ccccn3)cc2)CC1	-10%	4%	nt	nt	22%	3%	nt	?
COc1ccc(CC(=O)N(CCC2=CCCCC2)c2c(N)n(Cc3ccccc3)c(=O)[nH]c2=O)cc1OC	-14%	-2%	nt	nt	2%	8%	nt	-24%
S=C(Nc1cccc(Cl)c1)N1CCN(c2ccccn2)CC1	-10%	4%	-5%	nt	nt	5%	nt	nt
COC(=O)[C@@]1(Cc2ccc(F)cc2)[C@H]2c3cc(C(=O)N(C)C)n(CCO)c3C[C@H]2CN1C(=O)c1ccccc1	-13%	3%	nt	-3.6%	nt	nt	?	nt
CCOCCCNC(=O)CC1Oc2ccc(C)cc2NC1=O (stereo unspecified)	-25%	2%	-4%	-2.9%	nt	7%	-14%	nt
Cc1ccnc(NC(=O)CCCOc2cc(=O)n(C)c3ccccc23)c1	4%&37%	-12%&5%	-18%	-2.4%	-39%	3%	-3%	?
CCC(Oc1ccccc1)C(=O)Nc1ccccc1C(=O)N1CCOCC1 (stereo unspecified)	-15%	1%	1%	nt	-4%	-4%	nt	-5%
Cc1n[nH]c(C)c1S(=O)(=O)Nc1ccc2c(c1)OCCO2	?	-2%	-4%	0.8%	8%	6%	-2%	?
COc1ccc(C2CC(=O)Nc3cc4c(cc32)OCO4)c(OC)c1 (stereo unspecified)	?	nt	nt	-5.2%	?	nt	10%	?
O=C(CSc1ccccc1)Nc1nnc(-c2ccco2)o1	12%	3%	nt	nt	13%	-6%	nt	6%[46.1 µM]
CCOc1ccccc1NC(=O)CSc1nc(=O)n(CCCN2CCOCC2)c2c1CCCC2	5%	-5%	nt	nt	-5%[46.1 µM]	-2%	nt	-9%
CCOc1ccccc1-n1nnnc1SCC(=O)O	-5%	1%	?	nt	nt	3%	nt	nt
O=C(CSc1ncccn1)n1c2c(c3ccccc31)CCCC2	nt	11%	-31%	-2.5%	-2%	-12%	-4%	9%
Cc1ccc2nc(-c3ccc(NC(=O)CN4CCN(C(=O)c5ccco5)CC4)cc3)sc2c1	nt	-3%	-2%	-10%	?	5%	?	-16%
Cc1ccccc1C(=O)c1cccn1CC(=O)NCCC1=CCCCC1	13%	6%	nt	nt	-11%	-3%	nt	-15%[46.1 µM]
O=C(NCc1ccc(F)cc1)C1CCCN1C(=O)Nc1cccc(F)c1 (stereo unspecified)	5%	-1%	7%	nt	nt	?	nt	nt
Cc1nc(-c2ccc(S(=O)(=O)NCc3ccc(OC(C)C)cc3)cc2)co1	-21%	nt	nt	-4.8%	-14%[46.1 µM]	nt	1%	nt
CCOC(=O)C1(CCOc2ccccc2)CCN(Cc2ccc(-n3cccn3)cc2)CC1	?	-14%	3%	nt	nt	0%	nt	nt
COc1ccc(N(Cc2cccs2)C(=O)Nc2cccc(Cl)c2)cc1	-7%	nt	nt	-6.2%	-21%[46.1 µM]	nt	4%	-18%[46.1 µM]
COc1ccc(CCNC(=O)C2CCCN(c3ncnc4c3nc3n4CCCCC3)C2)c(OC)c1 (stereo unspecified)	-12%	6%	-8%	nt	nt	-3%	nt	nt
CCOC(=O)C1(Cc2ccccc2C(F)(F)F)CCN(C(C)CSC)CC1 (stereo unspecified)	-18%	8%	-4%	nt	nt	1%	nt	nt
CC(=O)CSc1ccc(-c2nc3ccccc3[nH]2)cn1	-76%	?	-38%	nt	?	-14%	nt	6.3µM*
O=C(O)C1CCN(c2ncccn2)CC1	-1%	-17%	5%	6.4%	15%	0%	-9%	12%
C/C(=N/NC(=O)c1cc(C)[nH]n1)c1ccncc1	24%	-16%	-6%	nt	?	-1%	nt	14%[46.1 µM]
Cc1ccc(-c2nn(Cc3ccccc3)cc2/C=C/C(=O)O)cc1	19%	17%	?	0.4%	18%	1%	-4%	4%
O=C(c1cc(-c2ccccc2)n[nH]1)N1CCc2c([nH]c3ccccc23)C1c1ccccn1 (stereo unspecified)	-30%	32%	11%	nt	?	-3%	nt	5.6µM*
CCOC(=O)C(CCCCCOc1ccccc1[N+](=O)[O-])C(=O)OCC	-25%	19%	-17%	-4.5%	5%	-3%	-6%	?
Cn1c(C(=O)NCc2ccc(F)cc2)cc2cc(S(=O)(=O)N3CCCCC3)ccc21	-35%	nt	nt	-3.0%	-2%[46.1 µM]	nt	-11%	nt
CCOc1ccccc1CN1CCN(C2CCSCC2)CC1CCO (stereo unspecified)	-12%	2%	1%	nt	16%[46.1 µM]	0%	nt	-25%[46.1 µM]
O=[N+]([O-])c1ccc2sc(SCc3nc4ccccn4c3Br)nc2c1	nt	nt	9%	-5.8%	nt	10%	2%	nt
Cc1ccccc1-c1nnnn1C1CCS(=O)(=O)C1 (stereo unspecified)	-13%	0%	-1%	nt	nt	1%	nt	nt

Screening results as filed in PubChem.
